AID504770 – growth inhibition of E. coli YBA685, primary screen, V. cholerae RctB inhibitors; E. coli YBA685 rctB-dependent plasmid, OD600 growth, 3 h; stronger effect = lower value; z-score (test concentration not listed); actives 0.27% (n = 130,000); AID 504770, 2011;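 active = z-score under -2 on both plates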;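 also: wells of about 30 µL received 100 nL stock; score is relative to mean and SD of the test wells; the first replicate is given; strong numbers were not always called active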
CapD inh – Bacillus anthracis CapD inhibitors, primary screen, biochemical, fluorescence intensity; actives 0.23% (n = 140,000); CapD gamma-glutamyltranspeptidase (Bacillus anthracis Ames Ancestor); purified CapD enzyme, fluorescence intensity read-out; stronger effect = lower value; some hits fall short of the stated cut; z-score (concentration not given with the values);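 active = z-score under -4 in either of two replicates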;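 also: stock transfer was 100 nL into about 40 µL; score is relative to mean and spread of the plate; one replicate is shown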
* hit, by the source's call; i = inactive; nt = not tested or not shown.

SMILES	AID504770	CapD inh
COC(=O)/C(=C\Nc1cccc(C(F)(F)F)c1)NC(=O)c1ccccc1	nt	-0.98
CCOC(=O)Cn1c(=O)oc2cc(S(=O)(=O)NCC3CCCO3)ccc21 (stereo not drawn)	-0.05	-0.92
COc1ccc(-n2c(/C=C/c3cccc(OC)c3OC)nc3ccccc3c2=O)cc1OC	nt	-0.58
CC(C)c1ccc(/C=N/NC(=O)c2ccc(S(N)(=O)=O)cc2)cc1	nt	0.36
CCOc1cc(CN2CCCCC2)ccc1OC	-0.75	0.2
CN=c1scc(-c2ccc(Br)s2)n1/N=C/c1ccc(OCC(=O)N2CCOCC2)c(OC)c1	0.3	nt
COc1ccc(CCN(C)C/C=C/c2ccc(N(C)C)cc2)cc1OC	-0.4	6.8
Cc1nc(-c2ccc(C#N)cc2)cs1	-1.9	0.4
CCOC(=O)C1CCN(C2CC(=O)N(c3c(C)cccc3C)C2=O)CC1 (stereo not drawn)	1.6	nt
O=S(=O)(Nc1ccccc1Cl)c1ccc2nc(Nc3ccc4c(c3)CCC4)oc2c1	1.3	nt
Cc1ccc(-c2nc(C#N)c(NCCN3CCCCC3)o2)cc1	0.6	nt
CCOC(=O)c1ccc(Cn2c3ccc(F)cc3c3nc4cc(F)ccc4nc32)o1	nt	-0.53
CCCc1oc2c(cc(NS(=O)(=O)c3ccc(F)cc3)c3ccccc32)c1C(=O)OCC	nt	0.2
O=C(O)Cn1ncc2c1-c1ccoc1CC2	-1	-1.4
O=C1CON(c2ccc(Cl)c(Cl)c2)C(=O)N1	-0.8	-0.34
Cn1c(C(=O)NCCCc2ccccc2)cc2oc3ccccc3c21	-0.4	2.1
CC(=O)N1c2ccccc2N2C(c3c(C)c(C)cc(C)c3C)=NON12	nt	0.27
CC1CN(Cc2nc3c(c(=O)n(C)c(=O)n3C)n2Cc2c(F)cccc2Cl)CC(C)O1 (stereo not drawn)	0.75	-2.2
CCOC(=O)N1CCC(NC(=O)Cn2ncc3c2-c2cc(C)ccc2OC3)CC1	-0.35	0.14
CC12CCC(CN(CC(O)Cn3c4ccccc4c4cc(I)ccc43)C1)C2(C)C (stereo not drawn)	nt	-0.38
O=C1CNC(=S)N1CCc1ccncc1	nt	-0.14
CCOC(=O)C1CCN(CN2C(=O)C3(SCC(=O)N3c3ccc(C)c(Cl)c3)c3ccccc32)CC1 (stereo not drawn)	nt	0.54
CC(C)(N)COc1nonc1N	-0.7	nt
NS(=O)(=O)c1ccc(CCNCc2ccccn2)cc1	0.05	nt
Nc1nc(-c2ccccc2)ns1	nt	0.67
O=C(Oc1ccccc1/C=C1/N=C2CCCCCN2C1=O)c1ccccc1Cl	0.15	0.12
O=C1N=c2ccc(Br)cc2=C1c1sc(=S)n(NC(=O)c2ccccc2Cl)c1O	nt	-1.8
Cc1ccc(C(=O)OCCN2CCCCC2)cc1	-0.75	-0.36
Cc1cc(C)c2c(n1)sc1c(=S)nc[nH]c12	0.1	-0.46
COc1ccc(OC)c(NC(=O)C2CCCNC2=O)c1 (stereo not drawn)	-0.65	-1.2
COc1cccc(C(=O)NNc2cc(C(F)(F)F)ccn2)c1	-0.5	0.76
Cc1cc(Oc2ccc(Cl)c(C)c2)c2ccccc2n1	nt	-0.94
O=C(Cn1ncc2ccccc21)NC1CCCc2ccccc21 (stereo not drawn)	-0.4	0.2
O=C(Nc1ccccc1-c1nc2ccccc2[nH]1)c1cc([N+](=O)[O-])cc([N+](=O)[O-])c1Cl	nt	0.01
CCOC(=O)C1=C(C)NC2=C(C(=O)C(C(=O)OCC)C(c3ccc(OC)cc3)C2)C1c1cccs1 (stereo not drawn)	nt	1
Nc1ccccc1C(=O)N1CCC(c2nc(-c3cnccn3)no2)CC1	nt	0.52
O=C(NN=c1c(=O)c2ccccc2c1=O)c1ccncc1	-0.55	nt
O=c1nc2ccccc2c2n1CC(CN1CCN(c3ccc(F)cc3)CC1)N2 (stereo not drawn)	nt	-0.22
N#Cc1ccc(CO/N=C(\N)c2ccccc2)cc1	0.2	nt
Cc1ccc(N=Nc2c(O)[nH]c3ccc(F)cc23)cc1	nt	0.3
COC(=O)c1sccc1-c1ccc(-c2ccn[nH]2)o1	-0.8	74
Cn1c(=O)c(=O)n(C)c2cc(S(=O)(=O)CCC(=O)N3CCOc4ccccc43)ccc21	-0.1	21
O=C(c1cc[n+]([O-])cc1)N1CCCCCC1	1.4	-0.46
CN1CCN(c2nc(-c3ccccc3)nc(-c3ccc(F)cc3)c2C#N)CC1	nt	-0.78
CC(CNC(C)c1ccccc1)C(=O)O (stereo not drawn)	-0.1	0.25
Cc1ccc(OCc2nnc(SCC(=O)Nc3ccc4c(c3)OCO4)n2C(C)C)c(C)c1	-0.15	nt
CCOC(=O)c1c[nH]c2cc(F)cc(F)c2c1=O	0.1	nt
CCNC(=O)c1cccc(OC)c1	-0.05	0.51
c1cc(-c2ccncc2)ccn1	-0.1	-0.7
CCOC(=O)/C=C1\CC(=O)Nc2cc(C)c(C)cc2N1	-0.25	0.39
CC(C)c1nnc(NC(=O)COc2ccc(Cl)cc2)s1	-0.45	i
CCC(=O)NNc1ncnc2c1cnn2C	0.55	-2.4
O=C(c1ccc(F)cc1)C1CCN(S(=O)(=O)c2ccc(Cl)cc2Cl)CC1	nt	-0.14
COc1cc2nc(CN3CC(C)OC(C)C3)[nH]c(=O)c2cc1OC (stereo not drawn)	1.2	nt
O=C(O)CSc1nn(-c2ccccc2)c(=S)s1	0.25	nt
Cc1cc(C)c(C(=O)/C=C(\N2CCCC2)C(F)(F)F)c(=O)[nH]1	0.4	-0.62
Cc1cccc2nc(CSc3nncn3-c3ccccc3)cn12	0.1	-0.33
COc1ccc(NC(=O)C2CCN(c3nc(C)nc4c3CCC4)CC2)cc1	-0.25	nt
CC(=O)Oc1ccc2occ(C(=O)c3ccc(Cl)cc3)c2c1	0.5	0.075
CCOC(=O)/C=C(\C)Nc1ccc(CC)cc1	1.2	-0.88

Following part.
SMILES	AID504770	CapD inh
CCCN1CCC(N2CCC(O)CC2)CC1	-0.55	0.42
Cc1ccc(C2(c3ccc(C)cc3)NC(=O)N(Cc3c(C)noc3C)C2=O)cc1	0.6	nt
Cc1csc(NC(=O)NCC2CCCC(CNC(=O)Nc3nc(C)cs3)C2)n1 (stereo not drawn)	-0.35	nt
CCOc1ccc(NC(=O)CC(C)Cc2cc(C)cc(C)c2)cc1 (stereo not drawn)	0.85	-0.05
CCOC(=O)c1ccc(NC(=O)NC2CC3CCC(C2)N3C(=S)NCc2ccco2)cc1 (stereo not drawn)	-0.25	nt
C=CCOC(=O)C1=C(C)OC(N)=C(C#N)C1c1ccc(OC)cc1 (stereo not drawn)	nt	16
NC(=O)Cn1cc(C(=O)c2cccs2)c2ccccc21	-1	-2.4
S=c1[nH]c(-c2ccccc2)cn1/N=C/c1ccc(N2CCOCC2)cc1	0.05	nt
OCCCOc1ccc2c(c1)C(=NO)c1cc(OCCCO)ccc1-2	nt	-0.68
O=C(Oc1ccccc1N1CCOCC1)C1=Cc2cc(Cl)ccc2OC1	-0.3	-0.42
CCOC(=O)C1CCN(C(=O)CSCc2ccccc2)CC1	0	-0.18
CCN1CCN(C(=O)c2cccs2)CC1	1.7	nt
O=C(NCCN1CCN(c2ccccc2)CC1)c1ccccc1F	-0.55	nt
COc1ccccc1N=C(NO)c1nonc1N	-0.35	0.57
COC(=O)c1ccc(N2C(=O)CC(SCCc3nc4ccccc4[nH]3)C2=O)cc1 (stereo not drawn)	0.75	-0.39
O=C(COC(=O)c1cncc(Br)c1)Nc1ccccc1	-0.85	-0.46
FC(F)(F)c1cnc(Sc2cccs2)c(Cl)c1	nt	0.16
O=C1Nc2ccccc2C1Cc1ccc(Cl)cc1 (stereo not drawn)	nt	0.4
COc1cc(C=C2C(=O)N(C)C(=O)N(C)C2=O)ccc1OC(=O)c1cc(F)c(F)cc1Cl	nt	0.1
Cc1cc(-c2ccccn2)n[nH]c1=O	-1.4	-0.42

Entries of single compounds from above. Screens in order: AID504770 | CapD inh
COc1cc(C=C2C(=O)N(C)C(=O)N(C)C2=O)ccc1OC(=O)c1cc(F)c(F)cc1Cl across the screens: nt | 0.1
CCN1CCN(C(=O)c2cccs2)CC1 across the screens: 1.7 | nt
COc1ccccc1N=C(NO)c1nonc1N across the screens: -0.35 | 0.57
OCCCOc1ccc2c(c1)C(=NO)c1cc(OCCCO)ccc1-2 across the screens: nt | -0.68
Cc1csc(NC(=O)NCC2CCCC(CNC(=O)Nc3nc(C)cs3)C2)n1 (stereo not drawn) across the screens: -0.35 | nt

Entries from the list above that have an aryl thioether with sulfur outside any ring (4):
SMILES	AID504770	CapD inh
Cc1ccc(OCc2nnc(SCC(=O)Nc3ccc4c(c3)OCO4)n2C(C)C)c(C)c1	-0.15	nt
O=C(O)CSc1nn(-c2ccccc2)c(=S)s1	0.25	nt
Cc1cccc2nc(CSc3nncn3-c3ccccc3)cn12	0.1	-0.33
FC(F)(F)c1cnc(Sc2cccs2)c(Cl)c1	nt	0.16

More records.
SMILES	AID504770	CapD inh
O=C(Nc1ccc(N2CCN(C(=O)c3ccccc3)CC2)cc1)c1ccccc1	-1	-0.65
O=C(O)Cn1cnc2ccccc2c1=O	1.4	nt
Cc1ccccc1NC(=O)c1cccn(Cc2cccc(C(F)(F)F)c2)c1=O	nt	-1.6
COc1ccc(C)cc1NC(=O)CSC1CCCC1	-0.15	nt
O=C(Cn1nnc(-c2ccncc2)n1)NCCc1ccccc1	0.15	nt
CCCCCC(=O)Nc1cc2c(cc1C(=O)O)OCCO2	-0.2	nt
Cc1cccc(N2C(N)=NC(N)=NC23CCCCC3)c1	-0.25	-0.7
CC1CCCCN1C(=O)Nc1cccc(C(F)(F)F)c1 (stereo not drawn)	-0.4	0.3
C=CCn1c(=O)sc2ccccc2c1=O	0.7	0.59
O=C(NS(=O)(=O)c1cccs1)c1ccccc1Cl	-0.05	0.57
O=C(NCCc1ccccn1)c1cn(S(=O)(=O)c2ccccc2)c2ccccc12	0.4	0.22
C=CCNc1ncnc2ccccc12	0.15	-0.06
COC(=O)C1=C(C)Nc2c(c(=O)n(C)c(=O)n2C)C1c1cccc(OCc2ccccc2)c1 (stereo not drawn)	-0.7	1.8
COC(=O)Cn1cc(C(=O)C2CC2)c2ccccc21	-0.15	-0.03
CC(OC(=O)c1cccnc1SC(C)C(N)=O)C(N)=O (stereo not drawn)	0.85	nt
COC(=O)c1ccc2c(c1)C(=O)N(C1CCCCC1)C2=O	1.1	0.26
COc1ccc(Cl)cc1NS(=O)(=O)N(C)C	-1.4	0.28
NC(=O)CNC(=O)CSc1ccccn1	1.4	-0.095
CCOC(=O)C1C(=O)Oc2ccc(Br)cc2C1C1(C(=O)OC)CCCC1 (stereo not drawn)	-0.65	-0.7
O=c1oc(/C=C/c2cccs2)nc2sc3c(c12)CCCC3	nt	-0.39
O/N=C1/C2CC3C1C14CC(C2/C1=N\O)C34 (stereo not drawn)	2.2	-0.33
COc1ccc(-c2csc(C(C#N)=C3CCCCC3)n2)cc1	-0.45	1.9
N=C1/C(=C/c2ccc(SCc3ccccc3)o2)C(=O)N=C2SC=CN12	0.5	-0.29
Cn1ncc(Br)c1N1C(=O)C=CC1=O	-3*	-0.25
CSc1nnc([C@@H](N)Cc2c[nH]c3ccccc23)o1	-1.1	nt
CCN(CC)c1ccc(O)c(C=Nc2ccc(S(N)(=O)=O)cc2)c1	-0.8	-3.5
Cc1cnc(NC(=O)Cc2ccc(OCc3c(C)noc3C)cc2)s1	-2.2	nt
CCCCOC(=O)c1cc(-c2ccc(/C=C3\NC(=S)NC3=O)o2)ccc1Cl	nt	-0.17
CNc1c(NC(=O)C(C)(C)C)c(=O)oc2ccccc12	-0.8	-0.15
CCN(CC)c1ncnc2c1sc1nc(N3CCOCC3)c3c(c12)CCCC3	nt	2.4
COc1cc(/C=C2/SC(=S)N(CCC(=O)Nc3nnc(C)s3)C2=O)cc(OC)c1OC	nt	-0.005
c1ccc(OC2OCCOC2Oc2ccccc2)cc1 (stereo not drawn)	-0.25	-0.3
N#CCc1c(C#N)c(N)nc(SC(=N)N)c1C#N	-0.8	nt
CCOC(=O)c1cccc(NC(=O)CCc2nc(C3=CCN(C)CC3)no2)c1	0.85	-1.9
Cc1nn(CCC#N)c2nc(-c3ccccc3)cc(C(F)(F)F)c12	0	65
COc1ccc(C2=NN3C(C2)c2cc(Cl)ccc2OC3c2cccc(OC)c2OC)cc1 (stereo not drawn)	nt	-0.33
Cc1ccc2c(c1)C(=O)CCCC1C(=O)N2CCN1C(=O)c1ccccc1 (stereo not drawn)	0	0.83
Cc1cc(C)nc(NS(=O)(=O)c2ccc(NC(=O)C34CC5CC(CC(C5)C3)C4)cc2)n1	nt	-0.5
CCc1ccc(OCCCC(=O)Oc2ccc3c(c2)oc(=O)c2ccccc23)cc1	0	-0.55
CCCC1C(=O)NC(=S)N(c2ccccc2)C1=O (stereo not drawn)	nt	-0.27
COc1cc(-c2nnc(CSc3nnc(C)s3)o2)cc(OC)c1OC	-0.35	nt
CC(C)c1nc2ccccc2c2c1C(=O)N(NC(=O)C1(c3ccc(Cl)cc3)CCC1)C2=O	nt	0.42
CCc1ccc(-c2nc3ccccc3c(=O)o2)cc1	0.3	29
O=C(CN1C(=O)S/C(=C\c2ccc(F)cc2)C1=O)Nc1ccc(S(=O)(=O)NCc2ccco2)cc1	0.25	nt
O=C(CSC(=S)N1CCCCC1)c1c(F)cccc1F	-0.4	0.51

Compound activity as filed in PubChem BioAssay.

An unsorted share of the library, and some 0.41% of all compounds hit somewhere here.
